# Screens as filed in PubChem.
# UCH37 DUB inh: inhibitors of human deubiquitinating enzyme UCH37 | Q9Y5K5 | AID 588478 | hit rate 0.33% among 330,000 | purified proteasome/UCH37, Ub-AMC cleavage fluorescence | inhibition, % (no concentration beside the values);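 active = mean of two replicates above 20%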;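 also: 0% = compound-free wells with enzyme and 100% = wells lacking proteasome; stock transfer was 100 nL into about 20 µL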
# Target sequence (Q9Y5K5 whole entry, looked up): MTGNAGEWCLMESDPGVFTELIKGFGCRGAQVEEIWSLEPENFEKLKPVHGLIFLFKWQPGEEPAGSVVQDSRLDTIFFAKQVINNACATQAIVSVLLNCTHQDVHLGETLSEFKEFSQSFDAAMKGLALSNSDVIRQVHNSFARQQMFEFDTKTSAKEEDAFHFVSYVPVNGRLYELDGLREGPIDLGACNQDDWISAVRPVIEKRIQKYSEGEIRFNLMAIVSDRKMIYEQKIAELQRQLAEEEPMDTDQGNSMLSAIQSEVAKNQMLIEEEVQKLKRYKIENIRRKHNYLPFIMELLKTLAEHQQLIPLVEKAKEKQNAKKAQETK
#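 System: Proteasome-associated human UCH37 deubiquitinase; Input: 0.15 nM proteasome in added enzyme buffer; Also added: Ub-AMC substrate from 1 µM stock; Incubation: 30 min compound-proteasome preincubation then 25 min substrate reaction, room temperature; Detection: fluorescence, ex 355 nm, em 460 nm; Read-out: % inhibition of Ub-AMC cleavage fluorescence; Benchmarks: no-proteasome and no-compound wells.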
# AF4-AF9 inh: MLL-AF4/AF9 protein interaction inhibition; hit rate 0.47% among 350,000; AlphaScreen, biotin-AF4 peptide binding to FLAG-AF9; inhibition, % at 10 µM; P42568;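 active = every replicate reaching a set inhibition limit, whatever the replicate mean, cut at about 25% in these data; inconclusive = mean inhibition reaches that limit but some replicates miss it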;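 also: 0% = plate neutral control median and 100% = total signal loss; the record names both 10 and 1 µM as test concentration; the first replicate is given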
# Target sequence (P42568 whole entry, looked up): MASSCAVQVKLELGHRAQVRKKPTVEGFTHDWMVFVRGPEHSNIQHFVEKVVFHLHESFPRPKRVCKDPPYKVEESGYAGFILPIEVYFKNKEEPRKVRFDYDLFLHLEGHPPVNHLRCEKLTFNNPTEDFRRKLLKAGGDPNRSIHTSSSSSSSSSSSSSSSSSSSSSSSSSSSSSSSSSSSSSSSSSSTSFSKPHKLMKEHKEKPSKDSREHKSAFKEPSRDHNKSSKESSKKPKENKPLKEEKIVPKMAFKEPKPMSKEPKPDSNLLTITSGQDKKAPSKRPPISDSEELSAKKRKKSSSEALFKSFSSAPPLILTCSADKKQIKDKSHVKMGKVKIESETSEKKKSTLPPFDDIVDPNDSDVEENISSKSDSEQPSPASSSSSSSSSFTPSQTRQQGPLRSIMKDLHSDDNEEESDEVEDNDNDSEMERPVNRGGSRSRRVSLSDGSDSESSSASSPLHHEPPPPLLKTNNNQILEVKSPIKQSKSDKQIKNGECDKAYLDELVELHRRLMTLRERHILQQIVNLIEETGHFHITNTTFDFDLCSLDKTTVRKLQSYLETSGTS
# RanGTP-Imp inh: disruptors of Ran-importin-beta complex formation – biochemical, FRET, CFP-Ran, YFP-importin-beta, homogeneous, primary screen; cell-free CFP-Ran/YFP-importin-beta FRET ratio; inhibition, % (no concentration beside the values); hit rate 1.1% among 300,000; AID 2216;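 active = most replicates above 15%; inconclusive = exactly half above 15%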;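 also: 0% = DMSO wells and 100% = Ran loaded with GDP instead of GTP; wells of about 40 µL received 100 nL stock; the first replicate is given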
# HNF4A DNA FP: change in binding of human HNF4 alpha to DNA | P41235 | HNF4a-FITC DNA binding, fluorescence polarization, 1 h | activity change, % at 10 µM | hit rate 0.3% among 360,000; in the data active = activity change above about 30%, passing the limit was not always enough;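 also: controls were the assay level and a saturating level of protein; the project sought stronger binding though the title names inhibitors; some compounds called inactive have numbers as strong as hits; positive values seem to mean higher polarization but the record does not say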
# E coli growth: inhibitors of Escherichia coli growth | OD600, 23 h; active compounds read low | OD600 absorbance (test concentration not listed) | hit rate 0.21% among 330,000 | AID 1053175;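 active = OD600 absorbance below the run mean of sample wells minus 3.6 SD, in any replicate, cut at about 0.56 in these data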;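 also: stock transfer was 300 nL into about 60 µL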
# Vif A3G: HIV-1 Vif–A3G interaction blockers – biochemical, TR-FRET, GST-Vif 1-94, biotin-A3G peptide, dose response retest, primary screen (AID 1117319) | TR-FRET GST-Vif / biotin-A3G peptide binding; higher % means a stronger effect; test concentration not given here; strong numbers were not always called active | hit rate 0.57% among 260,000 | inhibition, %; hits with a dose series show IC50 in µM;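 active = above the screen mean plus three standard deviations and confirmed in dose response; inconclusive = results disagree or hit not tested in dose response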;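 also: Vif residues 1-94 fused to GST binding biotinylated APOBEC3G peptide 110-148; 0% = full assay without inhibitor and 100% = GST in place of GST-Vif; retest series ran down from 100 µM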
# FGF22 binding: FGF22 (human) thermal shift binding; calls only at 9.99 µM; recombinant FGF22 thermal shift, SYPRO orange fluorescence; percent of sucrose octasulfate shift, DMSO zero; hit rate 1.5% among 340,000; AID 651658; Q9HCT0;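 active = melting point raised past a set limit in the mean and every replicate; inconclusive = no clear call; three in four hits are not shown here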
# Target sequence (Q9HCT0 whole entry, looked up): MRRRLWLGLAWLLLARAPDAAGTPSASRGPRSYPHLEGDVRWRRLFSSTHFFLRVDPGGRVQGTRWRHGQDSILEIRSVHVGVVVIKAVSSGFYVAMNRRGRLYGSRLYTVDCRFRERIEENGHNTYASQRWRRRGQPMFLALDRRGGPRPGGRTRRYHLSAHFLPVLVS
# * = called active by the depositor; i = inactive; ? = inconclusive; / = not tested or not shown. Some of the compounds tested; count on the stated rates, not on these rows.
UCH37 DUB inh	AF4-AF9 inh	RanGTP-Imp inh	HNF4A DNA FP	E coli growth	Vif A3G	FGF22 binding	compound
/	13	-5.5	-0.9	/	4%	i	CC1=C/C(=N\Nc2ccccc2[N+](=O)[O-])CC(C)(C)C1
7.9	/	-3.7	6.2	0.68	-7%	/	O=C(COc1ccccc1)N1CCN(c2nnc(-c3ccccc3)c3ccccc23)CC1
4.7	0.4	0.8	0.7	0.67	13%	i	CCn1c(SCC(=O)N2CCCCCC2)nc2ccccc2c1=O
-41	/	1.0	1.7	0.75	-1%	/	CC1=C(C(=O)Nc2ccccc2)C(c2ccc3c(c2)OCO3)C2=C(CCCC2=O)N1 (stereo not drawn)
4.2	-3.7	?	-1.3	0.69	-4%	i	Cc1ccc2c(c1)N(CC(=O)N1CCCC1)C(=O)c1cccnc1O2
0.8	-2.3	-2.4	3.3	0.66	-3%	i	CSc1ccc(C#N)cc1NC(=O)c1cccnc1Cl
3.3	-7.1	3.2	-1.5	0.71	5%	i	COc1cccc(C(c2ccccc2)N2C3CCC2CN(S(=O)(=O)c2ccc(F)cc2)CC3)c1 (stereo not drawn)
-1.4	/	-2.7	-0.8	0.73	59µM*	/	Cc1nc2nc(C)c(CCC(=O)N3CCN(c4ccccc4)CC3)c(C)n2n1
2.2	-1.6	2.0	-1.9	0.68	0%	i	CCN(CC)C(=O)CCCSc1nnc(Nc2ccccc2F)s1
/	16	/	3.2	/	/	i	COc1cccc(Nc2nc(C(N)CCc3ccccc3)cs2)n1 (stereo not drawn)
2.9	/	-5.1	3.8	0.72	5%	/	COc1ccc(N2CCN(Cc3cc(=O)oc4cc(C)c(Cl)c(C)c34)CC2)cc1
1.1	3.5	0.7	1.6	0.65	/	i	COCCCNC(=O)c1cc(-c2cccnc2)nc2ccccc12
-0.2	/	6.7	/	0.68	12%	/	CC1(NC(=O)CC[N+](C)(C)CCO)CS(=O)(=O)CC1S(=O)(=O)[O-] (stereo not drawn)
-1.7	0.3	-0.3	-1.4	0.71	-7%	i	CC(C)CN1CCC(Oc2cccc(C(=O)NCCc3ccccc3)c2)CC1
1.1	/	-0.8	2.1	0.71	-7%	/	COc1ccc(N2C(=O)CCC(C(=O)N3CCCCCC3)C2c2ccc(OC)c(OC)c2)cc1 (stereo not drawn)
6.7	4.2	/	5.0	0.7	/	i	O=C(CN1C(=O)C2CC=CCC2C1=O)Nc1nc(-c2ccc(F)cc2)cs1 (stereo not drawn)
-1.2	1.5	3.2	1.4	0.69	-49%	i	CN(C)c1ccc(-c2cccc(C3CC=CC4C3C(=O)N(Cc3ccccc3)C4c3ccc4ccccc4c3)c2)cc1 (stereo not drawn)
-17	-2.4	6.2	2.0	0.59	-1%	i	CCOc1ccccc1NC(=O)c1sc2ncn(CC(=O)N3CCOCC3)c(=O)c2c1C
1.5	/	4.6	3.1	0.7	-3%	/	Cc1cc(CSc2ccccc2)ccc1NC(=O)c1cccc([N+](=O)[O-])c1
6.0	-0.9	-3.4	3.7	0.62	/	i	COc1ccccc1N=NC1C(=O)N(C(N)=S)N=C1C (stereo not drawn)
-2.5	-29	?	-4.8	0.73	18%	i	COc1ccccc1-c1nn2c(-c3ccco3)nnc2s1
-2.3	/	4.1	-0.3	0.69	-1%	/	O=C(COC(=O)c1cc[n+]([O-])cc1)Nc1ccc2c(c1)OCCO2
-1.1	/	-9.2	0.3	0.73	27%	/	COc1ccc(Cn2c(SCC(=O)NCc3ccco3)nc3ccsc3c2=O)cc1
-0.2	-1.5	-0.6	1.1	0.62	0%	i	Cc1ccc(-c2noc(-c3ccoc3C)n2)cc1
1.9	3.9	-0.6	1.3	0.71	/	i	COc1ccc(S(=O)(=O)N2CCN(Cc3cccnc3)CC2)cc1
3.1	?	2.4	-2.7	0.64	-10%	i	CCN(CC(=O)Nc1c(F)cccc1F)C(=O)c1ccc(C(=O)c2ccccc2)cc1
/	/	4.9	4.0	/	?	/	COc1ccccc1/C=N/NC(=O)c1ccc(=O)n(C)c1
/	-2.0	/	7.5	/	10%	i	COc1cc(OCc2ccccc2)c(CC(=O)O)c([N+](=O)[O-])c1
-57	-1.9	-0.3	-2.0	0.71	7%	i	COC(=O)c1cccnc1NC(=S)NC(C)C
-0.2	3.1	/	-3.6	0.67	/	i	O=C(COC(=O)CCC(=O)c1ccc(F)cc1)Nc1ccc(Cl)cn1
-0.3	/	2.3	-1.6	0.77	8%	/	O=C(Nc1ccc2ccccc2c1)c1onc2c1CCCC2
/	-1.2	/	2.5	/	/	i	CCc1nc2ccc(C(=O)Nc3cccc(NS(C)(=O)=O)c3)cn2c1N(C=O)CCC(C)C
3.0	/	?	1.7	0.61	11%	/	Cc1ccc(-c2nnc(CSc3nncn3N)o2)cc1
1.5	0.7	/	-0.1	0.7	-7%	i	Cn1c(N)c(C(=O)COC(=O)/C=C/c2cccc(Br)c2)c(=O)n(C)c1=O
1.8	2.8	-3.2	1.9	0.69	/	i	COc1cc(NC(=O)Nc2cc(C)on2)cc(OC)c1OC
0.7	13	-13	4.7	0.71	4%	i	CC(=O)Nc1ccc(NC(=O)C(C)OC(=O)CC2CCCCC2)cc1 (stereo not drawn)
6.7	/	-0.1	0.9	0.74	23%	/	Cn1nc(CC(=O)Nc2ccc(N3CCN(C(=O)OC(C)(C)C)CC3)cc2)c2ccccc2c1=O
2.6	/	/	1.1	0.68	5%	/	CC(C)(C)c1ccc(C(=O)NCC(=O)OCN2C(=O)c3ccccc3C2=O)cc1
-0.3	0.9	-2.6	1.6	0.64	-1%	i	CCCN(CC(=O)Nc1ccccc1OC)C(=O)CCCN1C(=O)c2ccccc2C1=O
/	14	0.6	3.8	/	-6%	i	CC1(C)N=C(N)N=C(N)N1c1ccc(Oc2ccc(Cl)cc2)c(Cl)c1
1.7	-1.7	-5.4	0.7	0.77	11%	i	COc1ccc(C(=O)NCc2nnc(SCC(=O)Nc3nnc(C)s3)o2)cc1
5.1	-5.4	7.3	-4.2	0.71	18%	i	COC(=O)c1cccc(NC(=O)CC2C(=O)NCCN2C(=O)Nc2ccccc2)c1 (stereo not drawn)
2.5	-5.9	6.3	4.7	0.7	-3%	i	COCCOC(=O)C1=C(N)Oc2c(oc(CO)cc2=O)C1c1ccccc1F (stereo not drawn)
-0.3	-1.0	/	4.9	0.66	8%	i	CCOC(=O)C1CCCN(S(=O)(=O)c2nc3nc(C)cc(C)n3n2)C1 (stereo not drawn)
4.7	6.9	-0.6	-0.6	0.67	-2%	i	Cc1[nH]c2ccc(C(=O)N3CCN(Cc4ccccc4)CC3)cc2c1C
-36	-5.2	0.7	-0.1	0.68	-11%	i	Cc1nnc2c(NC3CCCCC3)nc3ccccc3n12
4.8	-1.7	0.6	-0.5	0.71	/	i	CCOCC(=O)Nc1cccc(SC)c1
-1.0	/	?	-0.6	0.75	0%	/	COc1ccc(C(=O)OC(COc2ccccc2)Cn2ccnc2)cc1 (stereo not drawn)
/	-1.8	-1.2	-1.1	/	-15%	i	Cc1cc(C)c2ccc(=O)n(CC(=O)N/N=C/c3ccccc3Cl)c2n1
-0.1	/	1.1	-0.1	0.67	0%	/	Cc1nnc(SCC(=O)N2CCN(S(=O)(=O)c3ccccc3)CC2)[nH]c1=O
6.4	-1.2	-2.8	2.1	0.67	-6%	i	CC(C(=O)c1ccc(-c2ccccc2)cc1)[n+]1cccc(C(N)=O)c1 (stereo not drawn)
/	3.0	4.6	-1.0	/	-8%	i	C=CCc1cccc(/C=N/NC(=O)CNc2ccccc2OC)c1O
/	-7.9	2.1	1.6	/	-2%	i	COc1ccc(/C=N/NC(=O)c2ccc(C)nc2)cc1O
4.4	0.9	3.3	-1.2	0.71	/	i	COc1ccc(NS(=O)(=O)c2ccc3c(c2)N(C(C)=O)CCO3)cc1
-0.8	/	-0.1	-0.2	0.68	-8%	/	Cc1nn(C(C)C(=O)O)c(=O)c2c1sc1ccccc12 (stereo not drawn)
2.7	/	7.6	-1.8	0.66	3%	/	CCCCOc1ccc(C(=O)Nc2ccc(N3CCN(C)CC3)cc2)cc1
4.4	/	3.9	0.1	0.67	-6%	/	Cc1nn(-c2nnc(NCc3ccccc3)nn2)c(C)c1Br
2.8	-1.1	-1.2	1.7	0.76	-4%	i	COc1ccc(NC(=O)c2ccc(NC(=O)C3CC3)cc2)cc1
0.0	/	24*	2.8	0.68	1%	/	CCn1c(SCc2nc(-c3ccccc3)no2)nnc1-c1cccs1
1.5	/	4.2	-2.4	0.67	-7%	/	Cc1ccc(-n2c(=O)c3sccc3n(CC(=O)NCc3ccco3)c2=O)cc1F

# One compound at a time, as listed above.
# Profile of CC(C)(C)c1ccc(C(=O)NCC(=O)OCN2C(=O)c3ccccc3C2=O)cc1 : UCH37 DUB inh = 2.6; AF4-AF9 inh = /; RanGTP-Imp inh = /; HNF4A DNA FP = 1.1; E coli growth = 0.68; Vif A3G = 5%; FGF22 binding = /
# Profile of CC(=O)Nc1ccc(NC(=O)C(C)OC(=O)CC2CCCCC2)cc1 (stereo not drawn) : UCH37 DUB inh = 0.7; AF4-AF9 inh = 13; RanGTP-Imp inh = -13; HNF4A DNA FP = 4.7; E coli growth = 0.71; Vif A3G = 4%; FGF22 binding = i

# Following part:
UCH37 DUB inh	AF4-AF9 inh	RanGTP-Imp inh	HNF4A DNA FP	E coli growth	Vif A3G	FGF22 binding	compound
0.7	/	3.9	-2.7	0.64	6%	/	Cc1cc(N)n(-c2ccc3ccccc3c2)n1
0.3	/	1.1	0.2	0.7	2%	/	CCOc1ccc(N2C(=O)c3cccnc3C2Nc2ccc(F)cc2)cc1 (stereo not drawn)
2.7	2.0	3.8	1.2	0.73	/	/	Clc1nc(Cl)nc(NCCC2=CCCCC2)n1
-60	-1.2	?	-5.1	0.65	-14%	i	Cc1nc(N2CCC(C)CC2)c2c(C)c(C(=O)Nc3ccccc3C(F)(F)F)sc2n1
-9.0	-0.8	2.3	-0.8	0.71	7%	i	CCC(OC(=O)C1=Cc2ccccc2OC1)C(=O)NC1CCCC1 (stereo not drawn)
-1.7	12	2.8	5.2	0.81	10%	/	CCN1CCn2c3c(c4cc(Cl)ccc42)CCCC31 (stereo not drawn)
0.4	/	3.6	0.3	0.68	-4%	/	Cc1ccc(S(=O)(=O)N2CCC(C(=O)N[C@@H](C)C(=O)NCc3ccco3)CC2)cc1
5.9	-12	-1.3	-1.4	0.7	5%	i	CC(=O)Nc1ccc(S(=O)(=O)Nc2c(C)nn(-c3ccccc3)c2C)cc1
/	/	4.0	0.9	/	?	/	CC(C)(C)C(=O)Nc1ccc(C(=O)N/N=C/c2ccccc2OC(=O)c2ccccc2)cc1
4.1	-2.0	-2.8	1.8	0.7	2%	i	CSc1ncccc1C(=O)NCC(c1cccs1)N1CCOCC1 (stereo not drawn)
-0.2	/	5.2	0.2	0.7	20%	/	CC1=C(C(=O)OC(C)C)C(c2ccc(F)cc2)NC(=O)N1 (stereo not drawn)
3.8	/	-2.4	6.3	0.7	/	/	CC(=O)c1cccc(NC(=O)C(Sc2ncnc3ccccc23)c2ccccc2)c1 (stereo not drawn)
2.8	3.0	2.3	1.1	0.66	/	i	CN1CCN(c2ccc(C(F)(F)F)cc2NC(=O)c2ccco2)CC1
-1.6	-5.7	?	-2.5	0.65	/	/	CC(=O)NNC(=S)NC(=O)C(c1ccccc1)c1ccccc1
0.1	0.2	2.1	1.1	0.66	/	i	CCn1c(=O)cc(OCC(=O)NCCCN2CCCC2=O)c2ccccc21
5.5	-2.9	/	1.9	0.68	-7%	i	CC12CCC(O)CC1=CCC1C2CCC2(C)C(c3ccn[nH]3)CCC12 (stereo not drawn)
